StopGo reporter: FMDV 2A StopGo reporter, luciferase signal | AID 1159524 | Potency, µM (series often up to 57.9 µM), without a hit: top-dose signal change, negative = less light | human cells with a luciferase reporter of 2A StopGo recoding; control for the full effect not named in the record | 410,000 tested, 1.2% active; active = well fitted falling curve with a large enough effect; inconclusive = small, poorly fitted or top-dose-only effect; inactive = no such curve, though single readings can be large or run the other way; tested in HEK293T cells; also: nearly all actives have a fitted effect of over 45% in size; luciferase light after 4 h
RE007 growth inh: less growth of the S. pombe RE007 Vpr strain; S. pombe RE007 Vpr strain, BacTiter-Glo ATP luminescence, 24 h; control for the full effect not named in the record; Potency, µM (doses to about 92.2 µM), for the others: at the top dose activity change, negative = less growth; 360,000 tested, 0.21% active; AID 651644; active = well fitted falling curve with a large enough effect; inconclusive = small, poorly fitted or top-dose-only effect; inactive = no such curve, though single readings can be large or run the other way;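 also: nearly all actives have a fitted effect of over 50% in size; the assay follows cell death caused by Vpr and the record does not say whether a fall means rescue or toxicity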
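Fission yeast RE007 carrying one integrated HIV-1 vpr copy, seeded at OD 0.01 in PMG+AL medium with 23 nL pinned compound. Grown 24 h at 30 degrees; viability read by BacTiter-Glo luminescence after 5 min.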
The depositor's hits bear a star; ? = inconclusive; [ ] = another dose, or the depositor's remark. % is scaled to controls: 0 for no effect and ±100 for the full control effect; potency is read from the fitted curve at half-maximal effect. Not all compounds are listed; the hit share may differ from the screen's.

Sample of the layout:
SMILES,StopGo reporter,RE007 growth inh
CCCNC(=O)C1(C)CCN(C(=O)c2cccc(OC(F)(F)F)c2)C1 (stereo not drawn),-5%,6%[18.4 µM]
Cc1ccc(-c2csc(C(O)c3cccc(Cl)c3)n2)cc1C (stereo not drawn),-10%,?

The whole of this part, from the start:
SMILES,StopGo reporter,RE007 growth inh
CCCNC(=O)C1(C)CCN(C(=O)c2cccc(OC(F)(F)F)c2)C1 (stereo not drawn),-5%,6%[18.4 µM]
Cc1ccc(-c2csc(C(O)c3cccc(Cl)c3)n2)cc1C (stereo not drawn),-10%,?
CC1(Oc2cnc(Cl)c3ccccc23)CCN(Cc2ccc(OC(F)(F)F)cc2)C1 (stereo not drawn),-24%,-24%
COc1ccc(NC(=O)N(C)C[C@@H]2OCc3cnnn3CCCC(=O)N([C@@H](C)CO)C[C@H]2C)cc1,-9%,-7%
O=C(OCc1cn([C@H]2CN(C(=O)C3CCCCC3)[C@@H](c3ccc(Cl)cc3)C[C@@H]2O)nn1)c1ccccc1,0%,1%
Cc1cc(Br)cn2c(Cc3ccccc3C(F)(F)F)c(-c3cccc(Br)c3)nc12,-20%,-1%
COc1cccc(NC(=O)c2cccc(NC(=O)c3ccco3)c2)c1,6%,-8%
CN(C)CCNc1ncnc2c1ncn2[C@H]1CN(Cc2cccs2)C[C@@H](CO)O1,-5%,-5%
c1ccc(Cc2c(-c3ccco3)nc3c4ccccc4ccn23)cc1,28%,-21%
Cc1ccc(Cc2c(C3CCCCC3)nc3ccc(C)cn23)cc1,?,?
Cc1ccc(S(=O)(=O)N2C[C@H]3C(=O)C[C@@H](c4ccc(Cl)cc4)N(S(=O)(=O)c4ccc(C)cc4)[C@H]3C[C@H]2c2ccccc2)cc1,-8%,9%
COc1cccc(CNc2nc3cc(C(C)=C(C)C)sc3c(=O)n2C)c1,-2%,5%
C[C@H](CO)N1C[C@H](C)[C@H](CN(C)Cc2ccncc2)Oc2ncc(C#CC3CC3)cc2C1=O,1%,5%
COc1cccc(CNc2nc3cc(-c4cccc(Cl)c4)sc3c(=O)n2C)c1,-4%,1%
CC(=O)Nc1cc(-c2ccc(S(C)(=O)=O)cc2)cn2c(-c3ccc(F)c(Cl)c3)cnc12,-13%,21%[18.4 µM]

Next structures follow:
SMILES,StopGo reporter,RE007 growth inh
C=CCN1C=CC(=O)[C@@H](O)[C@H]1c1ccccc1Br,-11%,6%
O=C1NC(=S)SC1=Cc1ccccc1C(=O)O,5%,7%
CCCCCC(=O)N1C[C@@H](n2cc(C3CC3)nn2)[C@H](O)C[C@@H]1c1ccc(C)cc1,-12%,3%
O=C(O)Cc1ccc2ccc3ccccc3c2c1,-16%,-9%
CCCCCCCCCC1(CC(=O)OCC)SCCN1C(N)=O (stereo not drawn),?,-12%
O=C(NCCc1ccccc1)c1cccc2c(-c3ccc(F)c(F)c3)coc12,-5%,3%[18.4 µM]
CC(=O)N1CCC(C(=O)N2c3ccccc3N=C(c3ccc(C(F)(F)F)cc3)C2C(=O)NC(C)C)CC1 (stereo not drawn),-13%,9%
CC1=C(C(=O)N(C(C)C)C(C)C)CC(CC(=O)NCCCN(C)C)C(=O)N1Cc1ccccc1 (stereo not drawn),-17%,-7%
CCCCCCCCC1CC(C(=O)Nc2ccccc2)C(=O)O1 (stereo not drawn),3%,-4%
CSc1ccc(CN(C)C(=O)c2ccc(S(=O)(=O)Nc3c(C)n(C)n(-c4ccccc4)c3=O)cc2)cc1,16%,-10%
CC(C)(C)NC(=O)C(c1ccccc1)n1c(=O)c(-c2cc3ccccc3[nH]2)nc2ccccc21 (stereo not drawn),-4%,1%
C[C@H](O)[C@@H]1CN2CCc3c([nH]c4ccc(-c5ccc6c(c5)OCO6)cc34)[C@@H]2C[C@@H]1N(C)C(=O)Nc1ccc(F)cc1,?,-19%
CC(C)C[C@H]1CN(CCCC[C@@H]2CNC(=O)C(=O)N2CCc2ccccc2)C(=O)C(=O)N1CCC1CCCCC1,17%,10%
CN(CC(=O)Nc1ccc(F)c(F)c1F)C(=O)c1cc(S(=O)(=O)N(C)C)ccc1N1CCCC1,-2%,-14%
OC(c1ccccc1)(c1nc(-c2ccc3c(c2)OCO3)cs1)C(F)(F)F (stereo not drawn),2%,?

The listing continues:
SMILES,StopGo reporter,RE007 growth inh
COC(=O)N1CCCCC1c1cc(C(=O)Nc2ccc3c(c2)OCO3)no1 (stereo not drawn),13%,-12%
C#CCOCCOCCOCCNc1nc(N2CCOCC2)nc(N2CCN(C(=O)Cn3cc(CCCCN)nn3)CC2)n1,-11%,10%
OC(c1ccco1)c1nc(-c2cccs2)cs1 (stereo not drawn),17%,7%[18.4 µM]
Cn1ccc2c(N(Cc3ccccc3)Cc3ccccc3)cc3c(c21)C1CCC3O1 (stereo not drawn),-25%,-7%
COc1ccc(CN2CCC2(C)C(=O)NCCNC(C)=O)c2ccccc12 (stereo not drawn),-6%,16%[18.4 µM]
O=c1onc(-c2ccccc2)n1Cc1ccc([N+](=O)[O-])cc1,-11%,-6%
COC(=O)C1=C(c2cc3ccccc3o2)C[C@@H]2CC[C@H]1N2C(=O)NCc1ccco1,-19%,10%
CC1=C(C(=O)N(C)C)CC(CC(=O)NCCN2CCOCC2)C(=O)N1Cc1ccc(C(C)(C)C)cc1 (stereo not drawn),-28%,-6%
Cc1ccc(C)c(C(=O)OCC(=O)NC(=O)NCc2ccccc2)c1,?,8%
OCc1ccc(-c2ccc3nccn3c2)cc1,12%,34%[18.4 µM]
COc1ccc(C(C)C)cc1-c1ccc2nncn2c1,3%,-10%[18.4 µM]
CC(=O)O[C@@H]1/C=C/[C@](C)(O)C[C@@H](C)C/C=C/[C@H]2[C@H](O)[C@@](C)(O)[C@@H](C)[C@H]3[C@H](Cc4ccccc4)NC(=O)[C@@]312,-22%,-9%
COc1cc(C(O)c2nc(-c3ccc(C)c(C)c3)cs2)ccc1F (stereo not drawn),-11%,-24%
C[C@@H]1CN([C@H](C)CO)C(=O)c2c(c3ccccc3n2C)-c2ccccc2CO[C@H]1CN(C)Cc1ccc(-c2ccccc2)cc1,-29%,1%
CCOC1=C2CN(S(=O)(=O)c3ccc(C)cc3)C(c3cccc(Cl)c3)CC2N(S(=O)(=O)c2ccc(Cl)cc2)C(c2ccccc2)C1 (stereo not drawn),?,1%

Remaining list, next part.
SMILES,StopGo reporter,RE007 growth inh
CC(C)C[C@H]1CN(CCCC[C@H]2CNC(=O)C(=O)N2Cc2ccccc2)C(=O)C(=O)N1CCC1CCCCC1,-13%,28%
CNC[C@@H]1OCc2ccccc2-c2c(n(C)c3ccccc23)C(=O)N([C@H](C)CO)C[C@@H]1C,-19%,-4%
O=C(Nc1c(F)c(F)c(F)c(F)c1F)c1ccc(Br)o1,-26%,?
CC1C(=O)N(Cc2cn(CCC3OCCCO3)nn2)CCS(=O)(=O)N1Cc1ccc(-c2ccc(Cl)nc2)cc1 (stereo not drawn),?,0%
CCOC(=O)C1=C[C@@H](CC)N(S(=O)(=O)c2ccc(C)cc2)[C@H]1c1cccc(Cl)c1,?,3%
CCOC1=C2[C@@H](CN(S(=O)(=O)c3ccc(C)cc3)[C@H]2c2ccc(Cl)cc2)[C@H]2C(=O)N(c3ccccc3)C(=O)[C@H]2C1,-13%,2%
N#Cc1cc2ccncc2c2ccccc12,-5%,-10%
Cc1ccc(S(=O)(=O)N2CC[C@H]3[C@@H](C2)C(=O)C[C@@H](c2ccccc2)N3S(=O)(=O)c2ccc(C)cc2)cc1,-20%,-8%
Cc1cc(F)cc(-c2cc(C(=O)NCc3cccc(Cl)c3)[nH]n2)c1,4%,1%
CCN1C[C@@H]2[C@@H]3C(=O)N(C)C(=O)[C@@H]3[C@](C)(C1=O)N2C(=O)c1ccc(Cl)c(Cl)c1,-7%,0%
CCOC(=O)C1=CCN(S(=O)(=O)c2ccccc2)C1c1ccc(Cl)cc1 (stereo not drawn),-33%,2%
COc1ccc(OCCNC(=O)C2(C)CCN2Cc2ccc(SC)cc2)cc1 (stereo not drawn),-5%,-14%[18.4 µM]
C=CC1=C2C=C(C3CC3)N(CCCN(CC)CC)C=C2C(=O)C(C)(OC(=O)c2ccco2)C1=O (stereo not drawn),-7%,1%
O=C(NCc1ccc(F)cc1)c1cc(C2CCCCN2S(=O)(=O)c2ccccc2)on1 (stereo not drawn),-5%,-7%
CCN(CC)c1nc(N)c(C#N)c(CC#N)c1C#N,-15%,9%

(continued)
SMILES,StopGo reporter,RE007 growth inh
COC(=O)C1=CN(c2ccc(F)cc2)C(N)=C(C#N)C1c1ccc(-c2ccccc2)cc1 (stereo not drawn),0%,-5%
COc1ccc(NC(=O)C2(C)CCN2Cc2ccccc2Cl)cc1OC (stereo not drawn),?,-1%[18.4 µM]
O=S(=O)(c1ccccc1)n1cc(-c2cccc3nccn23)c2ccccc21,-25%,5%[18.4 µM]
CCN1C(=O)N[C@@H](c2ccccc2)[C@H](C(C)=O)[C@H]1C,5%,3%
CCN(CC)C(=O)c1cccc(-c2csc(C(C)(O)c3ccccc3)n2)c1 (stereo not drawn),?,0%
O=C(Nc1ccc2c(c1)OCCO2)C1c2ccccc2OCC(=O)N1CC(F)(F)F (stereo not drawn),-13%,0%
COC(=O)C1=C(C(=O)OC)[C@@H]2Nc3ccccc3[C@@]23C[C@@H](C(=O)OC)N(C(=O)c2cccs2)C3=N1,-30%,-3%
COc1ccc(OC(F)(F)F)cc1CC1(C)C(=O)Nc2c(Cl)ccc(Cl)c21 (stereo not drawn),?,-8%
CCOC(=O)N(C)c1c(CC)nc2c(OCc3ccccc3C)cccn12,-18%,-7%[18.4 µM]
CCN1C(=O)[C@H]2[C@H]3CN=C(SC)N3[C@@](C)(C(=O)OC)[C@H]2C1=O,-7%,-5%
COc1ccc(S(=O)(=O)N(C)C[C@H]2OCc3cn(nn3)CCCC(=O)N([C@H](C)CO)C[C@@H]2C)cc1,-3%,34%
COc1cccc(CN2CCC(C(=O)NC(c3ccc4c(c3)OCO4)c3ccccn3)CC2)c1 (stereo not drawn),-9%,-25%
CC1(Cc2ccc(Cl)cc2)C(=O)Nc2c(Cl)cccc21 (stereo not drawn),0%,?
CC(C)CC1C(=O)N(Cc2cn(CC3CCCCC3)nn2)CCS(=O)(=O)N1Cc1ccc(-c2ccc(F)nc2)cc1 (stereo not drawn),?,-4%
CCOC(=O)C1CC(=NO)c2ccc(OC)c(OC)c2C1 (stereo not drawn),0%,-11%

Looked up above:
StopGo reporter result of COc1ccc(S(=O)(=O)N(C)C[C@H]2OCc3cn(nn3)CCCC(=O)N([C@H](C)CO)C[C@@H]2C)cc1 : -3%
StopGo reporter result of COc1cccc(CN2CCC(C(=O)NC(c3ccc4c(c3)OCO4)c3ccccn3)CC2)c1 (stereo not drawn) : -9%
StopGo reporter result of CC1(Cc2ccc(Cl)cc2)C(=O)Nc2c(Cl)cccc21 (stereo not drawn) : 0%

Three entries out of the list, ordered by length of the SMILES, lowest first:
SMILES,StopGo reporter,RE007 growth inh
CCOC(=O)C1CC(=NO)c2ccc(OC)c(OC)c2C1 (stereo not drawn),0%,-11%
O=C(Nc1ccc2c(c1)OCCO2)C1c2ccccc2OCC(=O)N1CC(F)(F)F (stereo not drawn),-13%,0%
COC(=O)C1=C(C(=O)OC)[C@@H]2Nc3ccccc3[C@@]23C[C@@H](C(=O)OC)N(C(=O)c2cccs2)C3=N1,-30%,-3%

Carrying on:
SMILES,StopGo reporter,RE007 growth inh
Cc1ccc(NC(=O)N2CCOCC2)cc1NC(=O)N1CCOCC1,7%,7%
C(=NNc1ccc2ccccc2n1)c1ccccn1,7.9µM*,28µM*
CCOc1ccc(CCN2C(=O)C(=O)N([C@@H](Cc3ccc(O)cc3)CN3CCC[C@H]3CN3C(=O)C(=O)NC[C@@H]3Cc3ccc(O)cc3)C[C@@H]2Cc2ccc(O)cc2)cc1,-8%,6%
NS(=O)(=O)c1ccc(CNC(=O)Cc2ccsc2)cc1,0%,-11%
CCOC(=O)C(=CNc1ccc(O)c(C(=O)OC)c1)C(=O)OCC,-17%,9%
COC(=O)C1=CN(c2ccc(N3CCOCC3)cc2)C(N)=C(C#N)C1c1cccc(F)c1 (stereo not drawn),-11%,-4%
O=C(NCCN1CCC(n2c(=O)[nH]c3ccccc32)CC1)c1ccc(F)cc1,-1%,-23%
CCOc1ccc(-c2noc(-c3csc([C@@H]4C[C@H](O)[C@@H](CO)O4)n3)n2)cc1,-6%,-5%[18.4 µM]
CC1C(=O)OC2CCN3CC=C(COC(=O)C(C)(O)C1(C)O)C23 (stereo not drawn),-16%,5%
CCc1nc2ccc(C(=O)N(C)CCN(C)C)cn2c1N(C)Cc1cc2ccccc2s1,-23%,?
C[C@H]1CCCCO[C@H](CN(C)C(=O)C2CCCCC2)[C@@H](C)CN([C@@H](C)CO)C(=O)c2cc(NC(=O)NC3CCCCC3)ccc2O1,0%,-5%
CCNC(=O)C1(C)CCCN(Cc2ccc(-c3ccccn3)cc2)C1 (stereo not drawn),-16%,-16%
CN1C[C@@H]2[C@@H]3C(=O)N(C)C(=O)[C@@H]3[C@](Cc3ccccc3)(C1=O)N2C(=O)c1ccccc1,-8%,5%
CC1(C(=O)NCc2ccc3c(c2)OCO3)CCN1CCc1ccccc1 (stereo not drawn),-15%,-10%
OC(c1ccc(F)c(F)c1)c1nc(-c2cccc(F)c2)cs1 (stereo not drawn),15%,?
CC1=C(C(=O)N2CCCCCC2)CC(CC(=O)NCCN2CCOCC2)C(=O)N1Cc1ccc(F)cc1 (stereo not drawn),-30%,-17%
